Screens (PubChem BioAssay)
StopGo RLuc = FMDV 2A StopGo reporter, Renilla signal; HEK cells with a luciferase reporter of 2A StopGo recoding; Potency, µM (top dose mostly 57.5 µM), without a hit: at the top dose signal change, negative = less light; 120,000 tested, 0.32% active; AID 1745857; active means well fitted falling curve with a large enough effect; inconclusive means small, poorly fitted or top-dose-only effect; inactive means no such curve, though single readings can be large or run the other way; further: nearly all actives have a fitted effect of over 55% in size; overnight with compound
StopGo FLuc = lowers the firefly signal of an FMDV 2A StopGo reporter; 120,000 tested, 0.23% active; AID 1745856; HEK cells with a luciferase reporter of 2A StopGo recoding; Potency, µM (highest dose often 57.5 µM), for the others: at the top dose signal change, negative = less light; active = well fitted falling curve with a large enough effect; inconclusive = small, poorly fitted or top-dose-only effect; inactive = no such curve, though single readings can be large or run the other way; further: nearly all actives have a fitted effect of over 60% in size; overnight with compound
Active calls of the source: *; ? = inconclusive; [ ] = dose if it differs, or a comment. On the % scale 0 is the no-effect control and ±100 the full control effect; potency means the concentration at half of the fitted maximal effect. An excerpt. The share of hits here may be higher or lower than overall.

SMILES	StopGo RLuc	StopGo FLuc
Cn1nc(C(=O)N2CCCCC2)c2c1-c1ccsc1CC2	29%	0%
c1ccc(C2=Nc3ccccc3N=C(c3ccccc3)c3ccccc32)cc1	26%	11%
COCCOc1ccc(C(=O)/C=C/c2cc(OC)c(OC)c(OC)c2)cc1	28µM*	?
CCOC(=O)c1ccc(NC(=O)c2c(NCc3cccc(OC)c3)sc3c2CCC3)cc1	-3%	9%
O=S(=O)(c1ccccc1)c1nc(-c2cccs2)oc1SCc1ccc(F)cc1	-2%	-10%
CCCCC(=O)NC1(C(F)(F)F)C(=O)N(Cc2ccccc2)C(C)=C1C(C)=O (centres undefined)	18%	-2%
CSc1ncc(C(=O)NCc2ccc(Cl)cc2)c(C(F)(F)F)n1	5%	-6%
Cc1cccc(NC(=O)CS(=O)(=O)c2nc(-c3ccccc3)cn2-c2cccc(Cl)c2)c1C	134%[activator]	91%[activator]
Cc1nn(C)c(C)c1C(C)C(=O)Nc1cc(F)c(N(C)C)c(F)c1 (centres undefined)	7%	30%
C=C(C)Cn1c(SCC(=O)c2ccc(OC)cc2)nc2sc3c(c2c1=O)CCCC3	-13%	5%
CCN(CC)c1ccc(NS(=O)(=O)c2ccc3c(c2)CCCN3C(C)=O)c(C)c1	51%[activator]	-25%
Cc1cc(C)c(S(=O)(=O)n2cnc(C)c2)c(C)c1	-2%	-11%
Cc1oc2cc(OCC(=O)O)ccc2c(=O)c1Oc1ccccc1Br	11%	7%
CN(C)c1cccc(C(=O)Nc2ccc(-c3nc4ccccc4o3)cc2)c1	-21%	122%[activator]
Cc1ccc(C(=O)OCC(=O)N2CCc3ccccc32)cc1S(=O)(=O)N1CCCCC1	203%[activator]	8%
O=S(=O)(Nc1nc2ccccc2nc1NCCc1ccccc1)c1cccc(Cl)c1	8%	?
CC(C)CC(NC(=O)c1ccc(-c2ccccc2)cc1)C(=O)O (centres undefined)	-2%[1.06 µM]	78%[activator]
CN(C)c1cc(CNC(=O)c2nccnc2N)ccn1	-6%	37%[activator]
O=C(O)c1ccc(C#Cc2ccccc2)cc1	7%	147%[activator]
Cc1oc(-c2ccccc2F)nc1CS(=O)CC(=O)NC(C)C (centres undefined)	-3%	12%
CCc1ccc2oc(C(=O)Nc3cccc(Cl)c3)cc(=O)c2c1	-5%	3%
CCCCCCCCCCOc1ccc(C(=O)O)cc1	8%	22%
C#CC(CC)(CC)NC(=O)CSc1nc2cc(Cl)ccc2s1	12%	0%
COc1ccc(-c2nc3cc(NC(=O)c4ccccc4I)ccc3o2)cc1	13%	102%[activator]
CCOc1ccc(CNC(=O)CCC(=O)N2CC3CCCN3c3ccccc32)cc1 (centres undefined)	-16%	-3%

Compounds from the list above that contain a COOH group (four):
SMILES	StopGo RLuc	StopGo FLuc
Cc1oc2cc(OCC(=O)O)ccc2c(=O)c1Oc1ccccc1Br	11%	7%
CC(C)CC(NC(=O)c1ccc(-c2ccccc2)cc1)C(=O)O (centres undefined)	-2%[1.06 µM]	78%[activator]
O=C(O)c1ccc(C#Cc2ccccc2)cc1	7%	147%[activator]
CCCCCCCCCCOc1ccc(C(=O)O)cc1	8%	22%

The listing continues:
SMILES	StopGo RLuc	StopGo FLuc
Cc1cc(C)c(C)c(S(=O)(=O)N2CCCc3ccccc32)c1C	11%	-7%
CC(C)(C)c1noc(CN2CCN(c3cccc(F)c3C#N)CC2)n1	11%	17%
Cc1c(C(=O)OC2CCCC2)[nH]c2c1C(=O)CC(c1ccc(Cl)cc1)C2 (centres undefined)	-10%	-15%
COc1ccc(C(=O)/C=C/c2ccccc2F)c(OC(=O)c2ccc(C)cc2)c1	9%	169%[activator]
CCc1ccc(OC(C)C(=O)N2CCC(c3nc4ccccc4s3)CC2)cc1 (centres undefined)	?	?
Cc1ccc(C(C)NS(=O)(=O)c2cccs2)cc1 (centres undefined)	137%[activator]	16%
CCN(CC)C(=O)Cn1c(=O)n(-c2ccc(Cl)c(Cl)c2)c(=O)c2c(C)c(C(=O)N(CC)CC)sc21	6%	-17%
CCC1CCC(c2nnc(-c3ccc(Br)cc3)o2)CC1 (centres undefined)	5%	0%
CC(C)NS(=O)(=O)c1cccc(C(=O)N2CCCC2c2ccc3c(c2)OCCO3)c1 (centres undefined)	41%[activator]	-1%
Cc1ccc(NC(=O)c2n[nH]c(=O)c3ccccc23)cc1S(=O)(=O)N1CCCCCC1	24%	13%
Cc1cc(O)c2c(C)c(CC(=O)NC3CCCCCC3)c(=O)oc2c1	20%	10%
Fc1ccc(CNCCCSc2nnnn2-c2ccccc2)cc1	-5%	17%
COc1cccc(CN(C(=O)c2sc3cc(C)ccc3c2Cl)C2CCS(=O)(=O)C2)c1 (centres undefined)	14%	-13%
CC1CCN(c2ccc(C(=O)O)cc2NS(=O)(=O)c2ccc(Br)s2)CC1	-6%	-9%
O=c1c2c(-c3ccccc3)n3ncnc3nc2ccn1CCc1cccs1	-7%	5%
COc1ccc(Cn2cc(COC(=O)Nc3ccc(F)cc3)nn2)cc1	9%	5%
C[N+](C)(C)CCCCOC(=O)C12CC3CC(CC(C3)C1)C2	3%	1%
CCc1ccc(CNC(=O)C2CCN(C(=O)c3ccc(-n4c(C)cc5ccccc54)s3)CC2)cc1	?	?
COc1cccc(C2CC(=O)Nc3c2c(=O)n(C)c2nc4ccccc4n32)c1 (centres undefined)	3%	-6%
Cc1cccc(-n2nnnc2C2(N3CCCC3)CCCC2)c1	16%	-4%
Cn1c(=O)c2c(ncn2CC(=O)NC2(C)CCS(=O)(=O)C2)n(C)c1=O (centres undefined)	-3%	-1%
O=C(c1ccc2c(c1)N(Cc1cccc(Cl)c1)C(=O)c1ccccc1S2=O)N1CCN(c2cccc(C(F)(F)F)c2)CC1 (centres undefined)	-5%	-26%
CC(C1CC1)N(C)Cc1nnc(-c2ccc(Br)o2)o1 (centres undefined)	3%	50%[activator]
Fc1ccc(Cc2cn3cc(-c4ccccc4)nc3s2)cc1	18%	154%[activator]
O=c1c2sc3ccccc3c2n(Cc2ccccc2F)c(=O)n1Cc1ccccc1	-12%	-22%

Grouped by structure, those above with bromine.
SMILES	StopGo RLuc	StopGo FLuc
Cc1oc2cc(OCC(=O)O)ccc2c(=O)c1Oc1ccccc1Br	11%	7%
CCC1CCC(c2nnc(-c3ccc(Br)cc3)o2)CC1 (centres undefined)	5%	0%
CC1CCN(c2ccc(C(=O)O)cc2NS(=O)(=O)c2ccc(Br)s2)CC1	-6%	-9%
CC(C1CC1)N(C)Cc1nnc(-c2ccc(Br)o2)o1 (centres undefined)	3%	50%[activator]

The list goes on:
SMILES	StopGo RLuc	StopGo FLuc
COc1cc(C#N)ccc1OC(=O)c1oc2ccccc2c1C	0%[1.06 µM]	?
CCOC(=O)c1c(C)[nH]c(C)c1S(=O)(=O)N1CCC(C(=O)N2CCN(c3cccc(Cl)c3)CC2)CC1	-4%	-10%
COc1cccc(NC(=O)CC(=O)Nc2ccc3nc4n(c(=O)c3c2)CCCCC4)c1	3%	6%
COC(=O)c1ccccc1-n1cc2c(c1-c1cccc(C)c1)c(=O)n(C)c(=O)n2C	-8%	-6%
O=C(/C=C/c1ccc(Br)cc1)c1ccc(Cl)cc1	14%	4%
CCCOc1ccc2c(c1)CC[C@@H]1[C@@H]2CC[C@]2(C)C(OC)CC[C@@H]12 (some centres undefined)	-7%	-16%[11.5 µM]
COc1ccc(OCC(=O)Nc2c(C(=O)N3CCC(N4CCCCC4)CC3)oc3ccccc23)cc1	60%[activator]	-19%
O=C(O)c1cccc(NC(=O)N2CCc3[nH]cnc3C2c2cccc(F)c2)c1 (centres undefined)	60%[activator]	20%
Cc1sc2c(c1C)c(=O)n(-c1ccc(Cl)cc1)c(=O)n2Cc1cc(=O)n2ccccc2n1	-8%	-15%
COc1cc(OC)cc(C(=O)N2CCN(C(=O)COc3ccccc3)CC2)c1	4%	3%
COC(=O)c1ccc(COC(=O)c2cc(=O)c3cc(C)ccc3o2)cc1	-14%	-4%
CCN(Cc1nc2cc(OC)c(OC)cc2c(=O)[nH]1)C(=O)c1cccc(F)c1	17%	20%
CCOC(=O)c1sc(N2C(=O)c3oc4cc(C)c(C)cc4c(=O)c3C2c2ccc(C)cc2)nc1C (centres undefined)	21%	39%[activator]
CCOc1ccc(NC(=O)Cn2c(=O)n(Cc3ccccc3)c(=O)c3c4c(sc32)CN(C(C)=O)CC4)cc1	4%	-2%
CN(C)c1ccc(NC(=O)CCc2ncc(-c3ccc(Cl)cc3)o2)cc1	0%	51%[activator]
CC(C)Oc1ccc(C(=O)Nc2ccc3c(c2)CCCN3C(=O)c2cccs2)cc1	?	-79%
CN(C)c1ccc(C(CNS(=O)(=O)c2ccc(F)cc2)N2CCCC2)cc1 (centres undefined)	-18%	7%
Cc1ccc(S(=O)(=O)NCCc2nnc3ccc(SCC(=O)Nc4ccc(OC(F)(F)F)cc4)nn23)cc1	-5%	-17%
COc1ccc(NC(=O)N2CCC(CN3CCCC3)CC2)c(OC)c1	-8%	-17%
COc1ccc(N2CCN(C(=O)c3cccc(NC(=O)c4nsc5ccccc45)c3)CC2)cc1	13%	95%[activator]
CCCNC(=O)CCc1nc(-c2ccccc2)c(-c2ccccc2)o1	9%	9%
CCOc1ccc(CCNC(=O)C2CCN(Cc3nc(-c4ccccc4C)oc3C)CC2)cc1OCC	-16%	-14%
c1ccc(CSc2ccc(Sc3ccc(SCc4ccccc4)cc3)cc2)cc1	10%	27%
CN(C)C(=O)CNC(=O)c1cc2occc2n1Cc1ccccc1	-3%	100%[activator]
Cc1cc(NC(=O)CN(C)S(=O)(=O)c2ccc3c(c2)CCCC(=O)N3)ccc1Br	?	?

Compounds above that have a CF3 group, in the order listed:
SMILES	StopGo RLuc	StopGo FLuc
CCCCC(=O)NC1(C(F)(F)F)C(=O)N(Cc2ccccc2)C(C)=C1C(C)=O (centres undefined)	18%	-2%
CSc1ncc(C(=O)NCc2ccc(Cl)cc2)c(C(F)(F)F)n1	5%	-6%
O=C(c1ccc2c(c1)N(Cc1cccc(Cl)c1)C(=O)c1ccccc1S2=O)N1CCN(c2cccc(C(F)(F)F)c2)CC1 (centres undefined)	-5%	-26%
Cc1ccc(S(=O)(=O)NCCc2nnc3ccc(SCC(=O)Nc4ccc(OC(F)(F)F)cc4)nn23)cc1	-5%	-17%

(cont.)
SMILES	StopGo RLuc	StopGo FLuc
CC(C)c1ccc(NC(=O)Cn2c(=O)oc3cc(S(=O)(=O)N4CCCC4)ccc32)cc1	?	6.3µM*
O=C(CSc1nc2ccccc2c(=O)[nH]1)Nc1ccc(Br)cc1	-10%	3%
Cc1ccc2cccc(NC(=O)C(C)Oc3cccc(C)c3C)c2n1 (centres undefined)	8%	12%
Cc1cccc(N2CCN(C(=O)CCS(=O)(=O)c3ccc4c(c3)CC(=O)N4C)CC2C)c1 (centres undefined)	-15%	-12%
CCCCN(CCCC)S(=O)(=O)c1ccc(OC)c2ncccc12	86%[activator]	6%
Cc1ccc(C(=O)Nc2nc3cc(NS(=O)(=O)Cc4ccccc4)ccc3s2)cc1	-2%	148%[activator]
CC(C)NC(=O)NC(=O)C(C)Nc1ccc(F)cc1 (centres undefined)	12%	23%
O=C(NC1CCCCC1)C1CC1c1ccccc1 (centres undefined)	12%	9%
Cc1cc(CNC(=O)c2nccnc2N)ccc1F	-17%	0%
CC(Cc1cccs1)N(Cc1ccccc1)C(=O)c1cc(S(=O)(=O)N(C)C)ccc1Cl (centres undefined)	17%	-10%
CCc1ccc(NC(=O)Cn2c(=O)n(CCC(C)C)c(=O)c3cccnc32)cc1	-3%	-24%
CCOc1cc(C2CC(=O)N3CN(c4ccccc4)CSC3=C2C#N)cc(Br)c1O (centres undefined)	-13%	0%
O=C(Nc1ccc(Cl)cc1)c1cc2cc(Cl)ccc2[nH]1	49%[activator]	76%[activator]
Cc1cc2oc(=O)cc(CN3CCN(c4ccccc4)CC3)c2cc1O	3%	16%
CC(COc1ccccc1)CN1CCC(C(O)(c2ccccc2)c2ccccc2)CC1 (centres undefined)	0%	-11%
Cc1ccc(C(CC(=O)NCC2(c3ccccc3)CCCC2)c2ccccc2)c(O)c1 (centres undefined)	-4%	?
Cc1cc(C(=O)OCC(=O)c2ccc3ccccc3c2)c2ccccc2n1	-10%	1%
CCc1ccc(CNC(=O)CCCn2ccc3cc(S(=O)(=O)N4CCCC4)ccc32)cc1	1%	?
Cc1cc(Cl)c(Cl)cc1S(=O)(=O)N(C)C	8%	5%
O=C(CSc1nc(-c2ccccc2)no1)N1CCCCC1	6%	-12%
Cc1cc(Nc2cccc(Cl)c2)nc2ccc(NC(=O)Cc3c(F)cccc3Cl)cc12	20%	6%
N#Cc1nc(-c2cccc3ccccc23)oc1NCC(c1cccs1)N1CCOCC1 (centres undefined)	4%	3%
N#Cc1nc(COc2ccccc2)oc1N1CCCCCC1	6%	84%[activator]
Cc1ccc2nc(-c3ccc(N)cc3)cc(C(=O)O)c2c1	0%	0%

Three entries drawn at random from those above:
SMILES	StopGo RLuc	StopGo FLuc
O=C(CSc1nc(-c2ccccc2)no1)N1CCCCC1	6%	-12%
N#Cc1nc(-c2cccc3ccccc23)oc1NCC(c1cccs1)N1CCOCC1 (centres undefined)	4%	3%
Cc1cccc(N2CCN(C(=O)CCS(=O)(=O)c3ccc4c(c3)CC(=O)N4C)CC2C)c1 (centres undefined)	-15%	-12%
